Bioassay records deposited in PubChem by National Center for Advancing Translational Sciences (NCATS).
VACV Venus inh: inhibitors of vaccinia virus (Venus reporter). Vaccinia virus Venus reporter expression, fluorescence. Potency, µM (titrated, usually from 36.5 µM), without a hit: at the highest dose activity change, negative = inhibition, most hits filed as inhibitors. actives 0.46% (n = 330,000). AID 720580; active means well fitted inhibition curve with a large enough effect; inconclusive means small, poorly fitted or top-dose-only effect; inactive means no such curve, though single readings can be large or run the other way; tested in A549 cells; also: nearly all actives have a fitted effect of over 30% in size; inactives centre near -10
Vaccinia mCherry: vaccinia inhibition (mCherry reporter) | Vaccinia virus mCherry reporter infection, fluorescence; about a quarter of the inactives have no number | AID 720579 | Potency, µM (series often up to 36.5 µM), for inactives: at the top dose activity change, negative = inhibition, hits mostly inhibitors | actives 0.63% (n = 310,000); active = well fitted inhibition curve with a large enough effect; inconclusive = small, poorly fitted or top-dose-only effect; inactive = no such curve, though single readings can be large or run the other way; tested in A549 cells; also: nearly all actives have a fitted effect of over 35% in size; inactives centre near -10
Starred values were filed as active, the others as inactive; i = inactive; ? = inconclusive; . = no result given; & = joins results of further samples; [ ] = remark or other dose. % is scaled to controls: 0 for no effect and ±100 for the full control effect; potency is read from the fitted curve at half-maximal effect.

SMILES	VACV Venus inh	Vaccinia mCherry
O=C(c1cc(COc2ccc(F)cc2Cl)on1)N1CCCC(OCc2cccnc2)C1 (stereo not drawn)	-13%	-20%
Cc1onc(-c2ccccc2Cl)c1C(=O)Nc1ccccc1N1CCOCC1	-11%	.
Cc1ccc(-n2nc3c(c2NC(=O)c2cccs2)CSC3)cc1	-7%	-3%
Cc1nn2c(C)c(C(=O)N3CCN(c4ccccc4)CC3)cnc2c1-c1ccccc1	-7%	-8%
COc1ccc(/C=N/NC(=O)c2ccoc2C)cc1O	5%	3%
CC(C)CC(=O)Nc1ccc(C(=O)Nc2cccc(O)c2)cc1	-19%	-5%
CC1CCN(S(=O)(=O)c2ccc(N=NC3=C(O)CC(C)(C)CC3=O)cc2)CC1	-16%	-15%
Cc1ccc(N2C(=O)N(CC(=O)Nc3ccc(C)c(C)c3)C(=O)C2C)cc1 (stereo not drawn)	-30%	?
CC(C)C[C@H]1CNC(=S)N1CC1CCCN1C[C@H](CC(C)C)N1C[C@H](Cc2ccc(O)cc2)N(CC2CCCCCC2)C1=S (stereo partly drawn)	28µM*	?
Cc1cc(OCC(=O)NC2CCCCC2)ccc1Cl	-14%	-25%
Cc1cc2c(n1-c1ccc(C(=O)NCCc3ccc(Cl)cc3)cc1)CCCC2	-8%	-24%
Cc1nn2c(=O)cc(COC(=O)c3ccccc3NC(=O)c3cccs3)nc2s1	?	?
COc1cc(OC)c(S(=O)(=O)Nc2ccc(C)cn2)cc1NC(C)=O	-15%	-12%
O=C(OCC(=O)N1CCCC1)c1ccc(Cl)c([N+](=O)[O-])c1	0%	i
CC1CN(C(=O)COC(=O)COc2ccc(C#N)cc2)CC(C)O1 (stereo not drawn)	-6%	-19%
Cc1c(C(=O)NCc2ccc(F)cc2)sc(=O)n1Cc1ccc(Cl)c(Cl)c1	-15%	-17%
Cc1cc(C)c2oc(=O)cc(CN3CCCCC3)c2c1	-21%	i
CCOC(=O)C1=C(C)N(CCCC(=O)O)C(=O)NC1c1ccc([N+](=O)[O-])cc1 (stereo not drawn)	-9%	i
CN(CC(=O)Nc1cccc(F)c1)C(=O)c1ccc(S(=O)(=O)N2CCCC2)cc1	-23%	-8%
Oc1cccc(Nc2nc(-c3ccccc3Cl)nc3ccccc23)c1	-20%	10µM*
CCn1c2ccccc2c2cc(/C=N/NC(=O)c3ccc(O)cc3)ccc21	?	-25%
CCN(CC)CC(C(=O)N(CC)CC)P(=O)(c1ccccc1)c1ccccc1 (stereo not drawn)	-18%	.
Cc1ccc(OCCCC(=O)NNC(=O)c2ccncc2)cc1	?	?
O=C(NCCOc1ccc2ccccc2c1)c1cncc(Br)c1	5%	-12%
Cc1ccc(C)c(NC(=O)CCC(=O)N2CCOc3ccccc32)c1	-4%	5%
Cc1cccc2sc(N(Cc3cccnc3)C(=O)CCS(=O)(=O)c3ccccc3)nc12	-8%	-5%
O=C(/C=C/c1ccccc1)NC(=S)Nc1ccc2c3c(cccc13)CC2	-17%	-19%
O=C(CN(C1CCCCC1)S(=O)(=O)c1ccccc1)N1CCCC1	-14%	-22%[1.46 µM]
CCCCCCSc1nnc(N)s1	-4%[7.34 µM]	?
CCOc1nc(-c2ccccc2O)nc2ccccc12	0%	-8%
CCCn1c(SCC(=O)NC)nnc1C(C)C	-7%	-17%
Cc1nn2c(-c3ccc(F)cc3)ccnc2c1Cl	-9%	-11%
O=C1CCN(Cc2ccccc2)C=C1c1ccc2ccccc2c1	-4%	i
CN1CCN(S(=O)(=O)c2ccc(NC(=S)NC(=O)C3CCCC3)cc2)CC1	-15%	-5%
COc1ccc(F)cc1-c1cc(C(=O)NCc2cc(C(F)(F)F)cc(C(F)(F)F)c2)[nH]n1	-12%	-2%
CCOc1cc2[nH]c(=O)n(CCC(=O)NCCc3ccccc3)c(=O)c2cc1OCC	-8%	-6%
CCC(C(=O)NC1CCCC1)N(C(=O)Cn1nnc(-c2ccc(C)o2)n1)c1cccc(OC)c1 (stereo not drawn)	8%	-12%
N#Cc1c(N)n(CCNC(=O)c2cccs2)c2nc3ccccc3nc12	-9%	-12%[1.46 µM]
CC1(C)Cc2c(sc(NC(=O)Cc3ccccc3)c2C#N)C(C)(C)N1	-16%	-9%
Cn1c(=O)[nH]c(=O)c2c1nc(N1CCOCC1)n2Cc1ccccc1	-6%	-10%
CO/N=C/c1ccc(N2CCCC2)c([N+](=O)[O-])c1	-16%	-5%
O=C(NC(Cc1ccccc1)C(=O)N1CCCCC1)c1ccccc1 (stereo not drawn)	-9%	-16%
COc1ccc(-c2cc(C(=O)NNC(=S)NC(=O)c3c(-c4ccccc4)noc3C)[nH]n2)cc1	-6%	?
COc1cccc(C(=O)NCCc2csc(-c3ccc(Cl)cc3)n2)c1	-14%	-20%
Cc1ccc(CN2CCC(CNC(=O)c3cnn(-c4ccccc4)c3C3CCN(C(=O)OC(C)(C)C)CC3)CC2)cc1	-21%	-21%

Ordered by SMILES length (descending): some entries from above.
SMILES	VACV Venus inh	Vaccinia mCherry
COc1ccc(F)cc1-c1cc(C(=O)NCc2cc(C(F)(F)F)cc(C(F)(F)F)c2)[nH]n1	-12%	-2%
O=C1CCN(Cc2ccccc2)C=C1c1ccc2ccccc2c1	-4%	i
CCCn1c(SCC(=O)NC)nnc1C(C)C	-7%	-17%

(continued)
SMILES	VACV Venus inh	Vaccinia mCherry
Cc1ccc(S(=O)(=O)N(C)c2ccc(OCC(=O)OCc3c(C)noc3C)cc2)cc1	-12%	-16%
O=C(Nc1ccccc1)c1nc[nH]c1C(=O)N1CCc2ccccc2C1	-20%	i
COc1cc([C@@H]2c3cc4c(cc3[C@@H](O)[C@H]3COC(=O)[C@H]23)OCO4)cc(OC)c1O[Si](C)(C)C(C)(C)C	?	-19%
Cn1c(SCc2cccc3ccccc23)nnc1-c1ccco1	-25%	.
CCOC(=O)Cn1c(=O)oc2cc(S(=O)(=O)N3CCN(c4ccccn4)CC3)ccc21	-13%	i
CSc1nnc(-c2ccc(O)cc2)n1C	-5%	-9%
O=C(c1ccc(Br)o1)N(c1ccccn1)C1CCCCC1	-12%	-14%
O=c1[nH][nH]c2c1[C@H](c1ccc(F)cc1)O[C@H](C1CCCCC1)C2	-15%	1%
O=C(NCCCN1CCOCC1)c1cc(-c2ccc(Br)cc2)nc2ccccc12	-26%	-13%
COc1ccc(N(CC(=O)N2CCCC2)S(C)(=O)=O)cc1	-5%	-11%
O=Cc1ccc(-c2ccccc2C(=O)O)o1	-12%	-2%
COc1cc(/C=N/N2C(=O)CSC2=S)cc(Br)c1O	.	318%[activator]
O=S(=O)(NCCS(=O)(=O)N1CCN(c2ccccc2F)CC1)c1ccc(Cl)cc1	-8%	-15%
O=C(COC(=O)CNS(=O)(=O)c1ccc(Br)cc1Cl)NCCc1ccccc1	-8%	-12%
COc1cc2nc(Nc3ccc(C)c(Cl)c3)nc(N)c2cc1OC	?	?

One compound at a time (already shown):
O=C(COC(=O)CNS(=O)(=O)c1ccc(Br)cc1Cl)NCCc1ccccc1 across the screens: VACV Venus inh = -8%; Vaccinia mCherry = -12%
COc1cc([C@@H]2c3cc4c(cc3[C@@H](O)[C@H]3COC(=O)[C@H]23)OCO4)cc(OC)c1O[Si](C)(C)C(C)(C)C across the screens: VACV Venus inh = ?; Vaccinia mCherry = -19%
COc1cc2nc(Nc3ccc(C)c(Cl)c3)nc(N)c2cc1OC across the screens: VACV Venus inh = ?; Vaccinia mCherry = ?

The list continues.
SMILES	VACV Venus inh	Vaccinia mCherry
O=[N+]([O-])c1cc(S(=O)(=O)N2CCCC2)ccc1N/N=C1/CCCc2ccccc21	-17%	-19%
CCOC(=O)CC1C(=O)NCCN1c1nc2ccc(C)cn2c(=O)c1/C=C1\SC(=S)N(CC(C)C)C1=O (stereo not drawn)	207%[activator]	i
Cc1nccn1CC(O)COc1ccc(Cl)cc1Cl (stereo not drawn)	-4%	i
Cn1nccc1C(=O)N1CCN(c2cccc(C(F)(F)F)c2)CC1	-6%	-22%
Cc1cccc(NC(=O)C2CCCN(S(=O)(=O)c3ccc(Br)s3)C2)c1 (stereo not drawn)	1%	-12%
COc1ccc(N2CCN(C(CNC(=O)C(=O)NCc3ccc(F)cc3)c3cccnc3)CC2)cc1 (stereo not drawn)	-18%	i
C=CCc1cccc2cc(C(=O)N3CCN(C(=O)c4ccccc4)CC3)c(=O)oc12	3%	7%
CC1=CC(=O)C(C(C)C)=C/C1=N\OC(=O)c1cccc2nc(C)oc12	-5%	i
CCN1CCN(C(=O)c2nn(-c3ccccc3)c(=O)c3ccccc23)CC1	-7%	-6%
CN(C)CCCN(C(=O)c1ccc(S(=O)(=O)N(C)C2CCCCC2)cc1)c1nc2ccc(F)cc2s1	-19%	i
O=c1c(-c2cccc3ccccc23)[n+]([O-])c2ccccc2n1O	-16%	i
Cc1cc(-c2n[nH]c(=S)n2Cc2ccco2)nn1C	-4%	-11%
COc1ccccc1-c1nc(S(=O)(=O)c2ccc(Cl)cc2)c(N(C)C)o1	-10%	-14%
O=C(COC(=O)c1ccccc1Oc1ccccc1)NC1CCS(=O)(=O)C1 (stereo not drawn)	-14%	.
Cc1ccc(C)c(S(=O)(=O)Nc2cc(SCC(=O)O)c(O)c3ccccc23)c1	-2%	i
Cc1cc(C)cc(N(C(=O)C2CCCC2)C2C=CS(=O)(=O)C2)c1 (stereo not drawn)	-18%	-8%
Cc1ccccc1Nc1c(-c2c[nH]c3ccccc23)nc2ccccn12	-14%	-12%
CC(C)(C)C(=O)NC(=S)NCCc1ccccc1	-10%	-24%
CC(C)C(=O)NC(Nc1cc(C(F)(F)F)ccc1Cl)C(Cl)(Cl)Cl (stereo not drawn)	-18%	i
O=C(c1cc(-c2ccccc2)nn1-c1ccccc1)N1CCN(S(=O)(=O)c2cccc(F)c2)CC1	-15%	-11%
Cc1ccc(C(=O)COC(=O)c2nc3nccc(C)n3n2)c(C)c1	-5%	i
CCOC(=O)C1=C(C)NC(SCC(=O)Nc2cc(C)on2)=C(C#N)C1c1cccs1 (stereo not drawn)	-16%	-25%
CNC(=O)[C@@H]1C[C@H](Sc2nc3ccccc3[nH]2)CN1Cc1ccccc1C(F)(F)F	-22%	-25%
COc1ccc(OC(C)C(=O)NC2CC(C)(C)NC(C)(C)C2)cc1 (stereo not drawn)	-5%	-13%
Cc1cccc(CNC(=O)c2ccc3c(c2)N(C)CCS3)c1	3%&-8%	-9%
Cc1cnc(C(=O)Nc2ccc3c(c2)CCC3)cn1	-7%	-8%
C[C@@H]1CN([C@@H](C)CO)C(=O)CCCn2cc(nn2)CO[C@H]1CN(C)C(=O)OCc1ccccc1	-12%	-19%
COc1ccc(-n2c(SCC(=O)NCC3CCCO3)nc3n[nH]c(C)c3c2=N)cc1 (stereo not drawn)	-30%	.
O=C1Nc2ccccc2C1=Nc1ccc(F)cc1	3%	?
COCCC(=O)NC1CCCc2c1cnn2-c1cccc(C)c1C (stereo not drawn)	-5%	i
CC(Sc1nnc(NC2CC2)s1)C(=O)Nc1ccc(N2CCOCC2)cc1 (stereo not drawn)	-5%	i
Cc1ccsc1C(=O)OCC(=O)Nc1nnc(-c2ccccc2)o1	-5%	-11%
CC1Cc2ccccc2N1S(=O)(=O)c1cccc(C(=O)NCCCn2ccnc2)c1 (stereo not drawn)	-19%	-14%
Cc1cccc(NC(=S)N2CCN(C(=O)c3ccco3)CC2)c1	6%	-18%
CC1(C(=O)NCc2ccco2)Cc2c(-c3ccccc3)ccnc2O1 (stereo not drawn)	-24%	-1%
C[C@H](CO)N1C[C@H](C)[C@@H](CN(C)Cc2ccc(-c3ccccc3)cc2)Oc2c(NS(=O)(=O)c3cccs3)cccc2C1=O	-25%	-9%
c1ccc(CN=C2CCCc3ccccc3N2)cc1	-8%	i
COc1ccc(C2CC(c3cccs3)=NN2C(=O)CCC(=O)O)cc1OC (stereo not drawn)	-6%	i
O=C(NC1=NCCS1)c1ccc(Cl)c(Cl)c1	-14%	-11%
CCCCc1ccc(NC(=S)Nc2ccc(Nc3ccc(OC)cc3)cc2)cc1	?	-16%
CCOC(=O)C1CCCN(S(=O)(=O)c2cc3c4c(c2)CCC(=O)N4CCC3)C1 (stereo not drawn)	-15%	i
C=CCOc1ccc(CNCC2CCCO2)cc1 (stereo not drawn)	-6%	i
C[C@@H]1CCCCO[C@@H](CN(C)C(=O)CCCN(C)C)[C@@H](C)CN([C@H](C)CO)C(=O)c2cc(NC(=O)CCC(F)(F)F)ccc2O1	-14%	10%
Cc1ccc(SC(C)c2nc(-c3cccnc3)no2)cc1 (stereo not drawn)	-3%	-15%
COCCNC(=S)N1CCN(c2ccc(Cl)cc2)CC1	0%	-2%

The last two entries of the section before open the next one:
SMILES	VACV Venus inh	Vaccinia mCherry
Cc1ccc(SC(C)c2nc(-c3cccnc3)no2)cc1 (stereo not drawn)	-3%	-15%
COCCNC(=S)N1CCN(c2ccc(Cl)cc2)CC1	0%	-2%
Cc1ccc(C(=O)NCC(=O)OC(C)C(=O)NC2CCCc3ccccc32)cc1 (stereo not drawn)	-9%	i
Cc1ccc(C(=O)Oc2ccccc2N2C(=O)C3C4CCC(C4)C3C2=O)cc1 (stereo not drawn)	-7%	-25%
Cc1ccc(CSc2nnc(-c3ccncc3)n2N)cc1	-9%	-5%
Cn1c(=O)c2c(nc(N3CCCCCC3)n2CC(=O)c2ccccc2)n(C)c1=O	-10%	-18%
CC(C)(C)C(=O)N1Cc2cc(N3CCOCC3)ccc2-n2nncc2C1	-4%	1%
